Source: PubChem BioAssay
S aureus helic = S. aureus DNA helicase inhibition | purified S. aureus helicase, fluorescence unwinding assay; about half of the hits fall short of the stated cut | inhibition, %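 (tested at about 80 µM)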 | 120,000 compounds, 0.05% hits;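 active = both duplicates at 50% or more, or one of them with a favoured structure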;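 note: 0% = mean of negative control wells and 100% = mean of positive control wells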
MgrA DNA FP = alters Staphylococcus aureus MgrA binding to DNA; fluorescence polarization; 84,000 compounds, 0.13% hits; inhibition, %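 (about 10 µg/mL by stock and volumes)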; AID 602314;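 active = above 50% in either of two replicates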;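 note: 0% = protein plus DNA without compound and 100% = DNA alone without protein; higher means less MgrA bound to DNA so lower polarization; one replicate is shown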
An asterisk follows results filed as active; · = no result given; & = joins results of further samples. The list is partial (hit frequency here may not be typical).

SMILES	S aureus helic	MgrA DNA FP
COc1ccc(C(=O)/C(C#N)=C/N2CCc3ccccc3C2)cc1	·	-1.9
CCN(CCS(=O)(=O)c1ccc(Cl)cc1)Cc1nc2ccccc2c(=O)[nH]1	7.0	·
CC(C)C(C(=O)NCc1ccccc1)N1Cc2ccccc2C1=O (stereo unspecified)	-18.0	·
Cc1ccc(NC2=NC(C)(C)N=C(N)N2)cc1	12.0	4.2
N#CCCSc1nccn1Cc1ccccc1	14.0	-5.2
O=C1CCC(=O)N1CNc1cc(C(F)(F)F)cc(C(F)(F)F)c1	·	-0.3
COc1ccccc1C1C=C(c2cccnc2)Nc2nc3ccccc3n21 (stereo unspecified)	-15.0	·
COC(=O)C1C2C=CC3(CN(CC(C)C)C(=O)C13)O2 (stereo unspecified)	2.0	·
CC(Sc1ncc(C(F)(F)F)cc1Cl)c1ccn[nH]1 (stereo unspecified)	·	-2.3
Nc1cnn(-c2ccccc2)c(=O)c1N	-4.0	-1.4
O=C(Cc1cccs1)N1CCN(c2ccccn2)CC1	10.0	3.2
CCOC(=O)c1c(NC(=O)C(C)Sc2nc3c(cnn3-c3ccc(F)cc3)c(=O)[nH]2)sc2c1CCC2 (stereo unspecified)	16.0	·
Cc1nnc(SCc2ccc(Cl)cc2Cl)o1	9.0	-1.4
Cc1c(C#N)c2nc3ccccc3n2c(=O)/c1=C\Nn1cnnc1	9.0	6.4
COCCn1c(C)cc(C(=O)COC(=O)c2ccccc2Br)c1C	-16.0	-1.4
Clc1cc2c(c3ncccc13)OCN(CC1CCCO1)C2 (stereo unspecified)	-13.0	·
Cc1cnc(N)c(C)n1	14.0	·
Cn1c(C(=O)NC2CC2)cc2c(=O)n(C)c3ccccc3c21	14.0	-2.9
CC1=C(C(=O)Nc2ccccc2)C(c2ccco2)C(C#N)=C(SCC(=O)Nc2ccccc2)N1 (stereo unspecified)	-3.0	1.7
c1ccc(-c2nonc2NCNc2nonc2-c2ccccc2)cc1	-3.0	0.8
O=C(O)C/C(=C/c1ccc(-c2cccs2)s1)C(=O)O	·	4.5
Cn1nc(C(C)(C)C)c(NC(=O)c2cccs2)c1C(C)(C)C	·	-0.6
N#CC1=C(O)c2ccccc2N(S(=O)(=O)c2ccc(Cl)cc2)CC1	·	-0.2
N#Cc1c(N)ncc2c1CCCC2	7.0	2.7
Clc1cccc(-c2cnco2)c1	·	2.5
NC(=O)C1CCN(CC(O)COc2ccc(Cl)c(Cl)c2)CC1 (stereo unspecified)	·	0.3
Oc1c(Cl)cc(Cl)cc1/C=N/c1ccnn1-c1ccccc1	·	0.6
COCCNc1nc(SC)nc(-c2ccccc2)c1C#N	-23.0	·
Nc1nc2ccccc2n1C(=O)CCc1ccccc1	8.0	·
CCc1ccc2c(c1)=C(c1sc(Nc3cccc(Cl)c3C)nc1O)C(=O)N=2	9.0	2.5

Single records, from the list above. Screens in order: S aureus helic | MgrA DNA FP
Cc1ccc(NC2=NC(C)(C)N=C(N)N2)cc1 reads 12.0 | 4.2
NC(=O)C1CCN(CC(O)COc2ccc(Cl)c(Cl)c2)CC1 (stereo unspecified) reads · | 0.3
Cc1c(C#N)c2nc3ccccc3n2c(=O)/c1=C\Nn1cnnc1 reads 9.0 | 6.4
CCc1ccc2c(c1)=C(c1sc(Nc3cccc(Cl)c3C)nc1O)C(=O)N=2 reads 9.0 | 2.5
c1ccc(-c2nonc2NCNc2nonc2-c2ccccc2)cc1 reads -3.0 | 0.8

Additional entries.
SMILES	S aureus helic	MgrA DNA FP
CCN(CC)C(=O)c1ccc2ccccc2n1	-12.0	-0.4
COc1cccc(NC(=O)c2cccc3c2OCCCO3)c1	·	-1.3
CCCc1nnc2n1Nc1nc3ccccc3nc1S2	5.0	·
Cn1ccc(N2C(=O)c3ccccc3C2=O)n1	15.0	·
COc1ccc(C(=O)N/C=C/n2cnc3cc(C(F)(F)F)ccc32)cc1	22.0	0.0
COc1ccc(Nc2nnc(C)c3ccccc23)cc1	19.0	-3.7
COc1ccc(-c2onc(C)c2C)cc1S(=O)(=O)NCC1CCN(Cc2ccc(F)cc2)CC1	2.0	·
CCc1ccc(/C=C2/C(=O)N(c3ccc(C)c(C)c3)C(=S)N2C)s1	-14.0	1.0
CN(C)C(=O)C(Cc1ccccc1)N1C(=O)C2C3C=CC(C3)C2C1=O (stereo unspecified)	17.0	-0.5
CC(Sc1nc2ncccc2o1)C(=O)N1CCCc2ccccc21 (stereo unspecified)	2.0	·
COc1ccc2c(c1OC)C(=O)OC2CC(=O)O (stereo unspecified)	13.0	·
N#Cc1ccc(C(=O)N2CCCSC2=NCc2ccccc2)cc1	-7.0	·
Cc1ccc(-n2nc(C(=O)NCCc3ccc(Cl)cc3)c3c4ccccc4n(C)c3c2=O)cc1	6.0	1.5
CN(c1ccc(O)cc1)c1nc(S(=O)(=O)c2ccccc2)c(Cl)s1	0.0	·
CC12CCC(C(=O)Nc3cccnc3)(OC1=O)C2(C)C (stereo unspecified)	17.0	0.4
O=C(OCC(=O)N1CCCC1)c1ccccc1Cc1ccccc1	4.0	-1.3
O=C(O)c1cccn2c(=O)c3ccccc3nc12	-8.0	0.3
C/C(=N\NC(=O)c1ccc(Cl)cc1)c1ccc(-n2ccnc2)cc1	3.0	·
Cn1c(=O)[nH]c(=O)c2[nH]c(N(CCO)CCO)nc21	2.0	4.2
O=C(Nc1ccc(N2CCCC2)cc1)c1ccccc1Cl	-6.0	1.1
CCOC(=O)CN1CC23C=CC(O2)C(C(=O)Nc2cccc(F)c2)C3C1=O (stereo unspecified)	-26.0	·
CCCc1noc2c1/C(=N\O)CC(CC(C)SCC)C2 (stereo unspecified)	18.0	5.0
CC1=NN(c2nc3ccccc3s2)C(=O)C1	·	-3.3
CC(C)(C)NC(=O)c1cccc2ccccc12	-8.0	0.4
CCc1cccc(NC(=O)Cn2c(C(=O)OC)cc3oc4ccccc4c32)c1	9.0	·
CC1COc2c(F)c(F)cc3c(=O)c(C(=O)O)cn1c23 (stereo unspecified)	18.0	·
Cc1nc2sc(C(=O)NC3CCC(C)CC3)c(C)c2c(=O)[nH]1 (stereo unspecified)	10.0	·
N#CC1=C(SCC(N)=O)NC2=C(C(=O)CCC2)C1c1ccccc1Cl (stereo unspecified)	17.0	·
CCCCn1c(C(O)c2ccccc2)nc2ccccc21 (stereo unspecified)	-15.0	·
COc1ccc(/C=C2\SC(=S)N(CC(=O)Nc3ncc(Cc4cccc([N+](=O)[O-])c4)s3)C2=O)cc1OC	·	-2.9
COc1cc2c(cc1OC)C(C)N(C(=O)c1ccco1)CC2 (stereo unspecified)	13.0	1.6
Cc1ccccc1NC(=S)Nc1ccccc1C(=O)Nc1ccc(F)cc1	·	-0.7
c1cc2cn[nH]c2cc1NC1CCCCCC1	-2.0	3.9
CCn1c(SCC(=O)Nc2ccc3[nH]c(=O)[nH]c3c2)nnc1-c1cccs1	-11.0	·
Cc1cccc(C)c1NC(=O)CN1c2ccccc2CC1C (stereo unspecified)	8.0	·
CC(C)NC(=O)CSc1nc(-c2ccccc2)cc(=O)[nH]1	-1.0	1.1
Cc1ccc(C(=O)COC(=O)CC2CC3CCC2C3)cc1 (stereo unspecified)	-15.0	1.9
N#Cc1c(Cl)cccc1-n1ccnc1	-23.0	·
COc1ccc(CNc2ccc3[nH]c(=O)[nH]c3c2)cc1OC	11.0	·
CN1/C(=C\C(=O)CSc2nncs2)C(C)(C)c2ccccc21	-14.0	·
O=C(CSc1ncnc2c1nnn2Cc1ccc(F)cc1)OCc1ccccc1	-2.0	-2.5
Brc1cccc(C=NCc2ccccc2)c1	·	1.4
COc1cc(C2NC(=O)C(C#N)=C(Nc3cccc(C)c3)S2)ccc1O (stereo unspecified)	·	-2.2
OCCNc1ncnc2ccc(Br)cc12	7.0	0.0
CC1C(=O)CC(c2ccccc2)N(C)C1c1ccccc1 (stereo unspecified)	5.0	·
O=C(O)c1cc(-c2ccc(Cl)cc2)cc2ccccc12	-3.0	-2.6
COc1cc(NC(C)=O)c(C(=O)c2nccc3cc(OC)c(OC)cc23)cc1OC	-16.0	-0.1
CCN=c1scc(-c2ccc(C)cc2)n1/N=C(\C)c1ccc(C)o1	-3.0	·
Cc1ccc(C(=O)N/C(N)=N/c2nc3ccccc3o2)cc1	8.0	4.3
CCc1nc(N=C(N)N)nc2ccc(C)cc12	15.0	1.4

The listing continues:
SMILES	S aureus helic	MgrA DNA FP
O=C1c2ccc(F)cc2C(=O)N1N1CCOCC1	-6.0	-1.6
O=[N+]([O-])c1ccc(-c2nc(-c3cccc([N+](=O)[O-])c3)no2)cc1	·	1.5
Fc1ccc(-n2cc(-c3ccccc3)c3c(NCc4ccccc4)ncnc32)cc1	-13.0	0.3
CCc1ccc(NC(=O)C(C)Nc2ccc3c(c2)OCCO3)cc1 (stereo unspecified)	11.0	·
Cc1cc(-n2c(C)cc(C(=O)CSc3ncnc4ccccc34)c2C)no1	-8.0	·
Cc1cc(N2C(=O)CS/C2=C(/C#N)C(=O)NC2CCCCC2)ccc1Cl	-24.0	·
COc1ccc(NC(=O)Cn2cnc3c(nnn3Cc3ccccc3F)c2=O)cc1OC	10.0	·
CCn1c(SCc2cccc3ccccc23)nnc1-c1ccco1	-14.0	·
Cc1nnc(NC(=O)c2nn(-c3ccccc3)nc2C)s1	·	-2.2
CCc1ccc(NC(=O)CC#N)cc1	30.0	-1.2
CC(C)NCc1nc(-c2ccc(Cl)cc2)no1	7.0	·
NC(=O)c1cccc2c1-c1ccccc1C2=O	·	-3.3
CSC1=N/C(=C\c2ccccc2)C(=O)S1	8.0	5.8
Oc1ccccc1C=Nc1ccc(Cl)cn1	·	-2.1
CCOc1ccc(CCNC(=O)C2CCC(=O)N2C2CCCCC2)cc1OCC (stereo unspecified)	13.0	·
Cc1ccc(NC(=O)NC(NC(=O)Cc2ccccc2)(C(F)(F)F)C(F)(F)F)cc1C	9.0	-1.9
COC(=O)C1CC2=CC(=O)CCC2(C)C2C(O)CC3(C)C(CCC34CCC(=O)O4)C12 (stereo unspecified)	·	3.8
Cc1ccccc1Nc1nnc(-c2ccc(C(=O)NCCO)cc2)c2ccccc12	10.0	1.9
O=C(c1c2c(nc3ccccc13)C(=O)N(C1CCCCC1)C2)N1CCCCCC1	4.0	·
O=C(Cn1ccc2ccccc2c1=O)NCCC(=O)N1CCCC1	-31.0	·
O=C1c2ccccc2-c2c1cnc1c(-c3ccccc3)cnn21	·	0.6
CCCCCCOc1ccc(C(=O)CCC(=O)O)cc1	·	-0.2
Cn1c(=O)c2c(nc3oc(C(C)(C)C)cn32)n(C)c1=O	-17.0	·
COc1ccc(CN2CCCN(Cc3ccc(OC)cc3)C2c2ccc(OC)cc2)cc1	-29.0	·
O=C(c1cc2c(s1)CCCC2)N1CCN(CCO)CC1	13.0	-4.2
CC(C(=O)O)N1C(=O)/C(=C\c2ccco2)SC1=S (stereo unspecified)	26.0	·
N#C/C(=N\Nc1ccccc1C(F)(F)F)C(=N)N1CCOCC1	16.0	·
Cc1ccc(NC(=O)C(C)C)c(C(=O)c2ccccc2)c1	-16.0	·
CNC(=O)NCc1c(F)cccc1Cl	-11.0	·
O=C1C=C(Nc2ccc(I)cc2)CCC1	-18.0	1.2
CCOC(=O)c1sc(NC(C)=O)nc1-c1ccccc1	-5.0	·
CCOC(=O)c1n[nH]n(-c2cc(C(F)(F)F)cc(C(F)(F)F)c2)c1=O	·	2.8
COc1cc(/C=C2\N=C(c3ccc(C)c(C)c3)OC2=O)cc(Br)c1OC(C)=O	·	-0.4
c1ccc(-n2nnnc2NCC(c2cccs2)c2c[nH]c3ccccc23)cc1 (stereo unspecified)	-5.0	·
CCc1ccc(NC(=O)C2NC(=O)CC2c2ccccc2)cc1 (stereo unspecified)	1.0	-0.1
CCC(=O)N1CCc2cc(S(=O)(=O)CCC(=O)Nc3ccc4c(c3)OCCO4)ccc21	6.0	·
CN(C(=O)CN1CCOCC1)n1cnc2ccsc2c1=O	4.0	·
CC1=CCC2C(=O)N(c3cc(C)on3)C(=O)C2C1 (stereo unspecified)	37.0	·
O=C(C1CCCCC1)N1N=C2/C(=C/c3ccco3)CCCC2C1c1ccco1 (stereo unspecified)	-25.0	·
CC(C)(C)c1ccc2c(c1)OCC(C(=O)O)O2 (stereo unspecified)	1.0	-5.2

Brought forward from above: 5 compounds, followed by the next part.
SMILES	S aureus helic	MgrA DNA FP
CCC(=O)N1CCc2cc(S(=O)(=O)CCC(=O)Nc3ccc4c(c3)OCCO4)ccc21	6.0	·
CN(C(=O)CN1CCOCC1)n1cnc2ccsc2c1=O	4.0	·
CC1=CCC2C(=O)N(c3cc(C)on3)C(=O)C2C1 (stereo unspecified)	37.0	·
O=C(C1CCCCC1)N1N=C2/C(=C/c3ccco3)CCCC2C1c1ccco1 (stereo unspecified)	-25.0	·
CC(C)(C)c1ccc2c(c1)OCC(C(=O)O)O2 (stereo unspecified)	1.0	-5.2
O=C1CCCCCN1Cc1n[nH]c(=S)o1	-5.0	·
NC(=O)CCSc1n[nH]c(=S)s1	6.0	·
CSC(N)=Nc1cc(Cl)ccc1Cl	·	-1.6
O=C1CCSc2c1cccc2C(=O)NCCCN1CCOCC1	13.0	·
CCc1ccc(NC(=O)c2cccc3c2C(=O)N(CCOC)C3)cc1	8.0	-0.7
COc1ccc(-c2nn(CO)c(=S)n2-c2ccccc2)cc1	8.0	-1.8
Cc1ccc(F)c2ncc3c(=O)n(-c4ccccc4Cl)[nH]c3c12	1.0	-2.5
O=C(/C=C/c1ccc(Br)o1)Nc1ccc(N2CCOCC2)cc1	8.0	-3.2
CCOC(=O)c1ccc2nc(C(F)(F)F)cc(N3CCOCC3)c2c1	·	-4.3
CCOC(=O)NCc1ccc2c(c1)cc(C)n2C	7.0&2.0	·
CC12CCC(C(=O)O)(CC1O)C2(C)C (stereo unspecified)	-18.0	·
COc1ccc(OC)c(NS(=O)(=O)c2cccs2)c1	13.0	·
Cc1nnc(SCC(=O)O)n1N	-1.0	2.5
